BJeLR viability = BJeLR cell viability loss; BJeLR (HRASV12) viability, CellTiter-Glo ATP luminescence, 48 h; reference of the scale not given here; 0.17% of 300,000 active; AID 1554; inhibition, % (concentration not given with the values);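 active means replicate mean above 50%; inconclusive means above 50% but judged a plate artefact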;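 further: 50 nL library stock added to about 25 µL; numbers are from one replicate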
RN4220 kill = S. aureus RN4220 growth inhibition; inhibition, % (no concentration beside the values); 0.33% of 330,000 active; OD600, 16 h;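 active means z-score of -3 or lower and OD600 up to 0.18 on both plates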;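 further: plate controls were untreated cells for no effect and reference antibiotic for full effect; stock transfer was 100 nL into about 80 µL; one replicate is shown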
Autofluor counter = counter-screen for toxin protease inhibitors: compound fluorescence. compound autofluorescence counterscreen, microsphere flow cytometry; hits give high values. fluorescence intensity (concentration not given with the values). 3.1% of 360,000 active;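 active means at least 3 SD above the mean of all compounds, about 16000 in these data; inconclusive means too few beads counted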;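 further: 100 nL of 1 mM stock went into each well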
PrP 5UTR inh = inhibition of PrP 5' UTR reporter expression; AID 488862; cell-based PrP 5' UTR mRNA reporter, plate reader; inhibition, % (no concentration beside the values); 0.35% of 340,000 active;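 active means every replicate at 50% or more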;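 further: 0 = median of the neutral control wells; tested in H4 reporter cells; numbers are from one replicate; inactives centre near -14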
ugtP null kill = compounds lethal to S. aureus RN4220 ugtP deletion mutant; OD600 growth, 16 h; some inactives read as strong as hits; growth inhibition, % (no concentration beside the values); 0.54% of 330,000 active;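 active means z-score under -3 and OD600 up to 0.15 on both plates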;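 further: plate controls were untreated wells for no effect and antibiotic for full effect; wells of about 80 µL received 100 nL stock; the first replicate is given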
Mtb hypoxia inh = inhibitors of hypoxia-regulated fluorescent reporter in Mycobacterium tuberculosis; fluorescence inhibition, % (no concentration beside the values); 0.1% of 300,000 active; AID 1159583; M. tuberculosis hypoxia-regulated fluorescent reporter, fluorescence;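 active means 35 to 45% if threefold the growth effect, above 45% if 1.5-fold the growth effect; inactive means the rest, general growth blockers included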;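 further: wells of about 50 µL received 100 nL stock; 0% = vehicle wells and 100% = reference inhibitor wells; whole bacteria with a GFP reporter of the hypoxia response; strong numbers were not always called active; many hits fall short of the cut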
Mtb hypoxia inh growth = further read-out of Mtb hypoxia inh, marked with its call; growth inhibition, %; measured here: M. tuberculosis growth (absorbance);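 0% = vehicle and 100% = reference antibiotic; read after six days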
Numbers without * were called inactive; ? = inconclusive; · = not tested or not shown.

Results follow in this order: BJeLR viability | RN4220 kill | Autofluor counter | PrP 5UTR inh | ugtP null kill | Mtb hypoxia inh | Mtb hypoxia inh growth
COc1cccc(OCC(O)CN2CCOCC2)c1 (configuration not stated)
 : -1 | 0.0 | 3255 | -5 | -10 | · | ·
COC(=O)CN1C(=O)C2C(C)C3=C4C(CC(C(=O)OC)=CC(C(=O)OC)C4[C@](C)(NC(=O)c4ccccc4)C3=O)C2C1=O (some centres not stated)
 : · | 3.9 | · | · | -2 | 9 | 4
O=C(OCC(=O)N1CCCC1=O)c1cc(Cl)ccc1O
 : 12 | 2.3 | 5972 | 0 | 4 | 5 | -3
N#CCSc1nc(-c2ccccc2)c2cc(Cl)ccc2n1
 : 3 | 8.2 | 1962 | -9 | 7 | 2 | 9
Cc1cc2[nH]c(=O)cc(-c3ccccc3)n2n1
 : -7 | 5.8 | 4249 | -17 | 9 | 3 | -7
C#CCOCCOCCOCCNc1nc(N2CCN(C(=O)CCCCCCCCCCNC(=O)C(C(C)O)n3cc(C)nn3)CC2)nc(N2CCN(C(=O)CCCCCCCCCCNC(=O)C(C(C)O)n3cc(C)nn3)CC2)n1 (configuration not stated)
 : · | 11 | · | · | -23 | -2 | 9
Cc1ccc(NC(=O)CSc2nnc(Cn3cnc4ccccc43)o2)c(C)c1
 : 1 | 2.0 | 3296 | -7 | 4 | 16 | 6
Cc1cc(C(=O)N/N=C2/CC(C)CC(C)(C)C2)c(C)o1 (configuration not stated)
 : -2 | · | 3028 | -3 | · | · | ·
COc1cc(OC)cc(C(=O)N2CCN(C3CCCCC3)CC2)c1
 : 0 | · | 3788 | -18 | · | · | ·
CCOc1ccc(NC(=S)Nc2cccc3cnccc23)cc1
 : 5 | 1.2 | 10195 | -15 | -2 | · | ·
Cc1ccc(S(=O)(=O)NCCC(=O)Nc2ncccc2O)cc1C
 : -8 | 3.0 | 5941 | -3 | 2 | -10 | -4
CCO[C@H]1OC(C(=O)NCc2ccccc2)=C[C@@H](C)[C@@H]1CCCO
 : -3 | · | 3618 | 4 | · | · | ·
O=C(C[C@H]1C[C@H](C(=O)N2CCCCC2)[C@@]2(CCc3ccccc3)c3[nH]c4cc(-c5ccco5)ccc4c3CCN2C1=O)NCc1cccc(C(F)(F)F)c1
 : · | 0.3 | 3902 | -16 | -7 | 7 | 5
Cc1nn(-c2ccccc2Cl)c(Cl)c1/C=C(\C#N)C(N)=O
 : 4 | 2.1 | 2534 | -11 | -9 | 5 | 1
CCOCCCn1c(=S)[nH]c2cc(C(=O)NCC(OC)OC)ccc2c1=O
 : 4 | 15 | 4380 | -10 | 4 | 14 | 11
O=C(CN1C(=O)NC2(CCCC2)C1=O)OCc1ccc(Cl)cc1Cl
 : -9 | 4.4 | 5602 | -13 | 2 | 6 | 9
Cc1ccc(/C=C/C(=O)N2CCN(S(=O)(=O)/C=C/c3ccccc3)CC2)o1
 : -5 | 6.4 | 5039 | -15 | 18 | 1 | -3
O=[N+]([O-])c1ccc2c(c1)nc1n2CCCCC1
 : 2 | 4.6 | 4155 | -43 | 4 | 2 | 3
O=C(CSCc1ccc(Cl)cc1Cl)Nc1nccs1
 : -11 | 6.4 | 2139 | -20 | 0 | 11 | 0
Cc1cccc(NC(=O)CCCNC(=O)c2ccc(Cl)cc2)n1
 : -14 | 0.2 | 6411 | -5 | 0 | 7 | 11

Single records, from the list above. Values in the order: BJeLR viability	RN4220 kill	Autofluor counter	PrP 5UTR inh	ugtP null kill	Mtb hypoxia inh	Mtb hypoxia inh growth
CCOCCCn1c(=S)[nH]c2cc(C(=O)NCC(OC)OC)ccc2c1=O is listed with 4	15	4380	-10	4	14	11
Cc1nn(-c2ccccc2Cl)c(Cl)c1/C=C(\C#N)C(N)=O is listed with 4	2.1	2534	-11	-9	5	1
Cc1cc(C(=O)N/N=C2/CC(C)CC(C)(C)C2)c(C)o1 (configuration not stated) is listed with -2	·	3028	-3	·	·	·

Continued.
Results follow in this order: BJeLR viability | RN4220 kill | Autofluor counter | PrP 5UTR inh | ugtP null kill | Mtb hypoxia inh | Mtb hypoxia inh growth
O=C(Nc1ccc(OC(F)(F)F)cc1)c1cccc(-n2cnnn2)c1
 : · | 1.9 | 5996 | -15 | -1 | -7 | -2
CC1(C)C[C@H](O)[C@@]23C[C@@H](OC2=O)[C@]2(C)C(=CCC4[C@@]5(C)CC[C@H](O)C(C)(C)C5CC[C@]42C)[C@@H]3C1 (some centres not stated)
 : 0 | 18 | · | · | 6 | · | ·
O=C(c1ccc(NS(=O)(=O)c2cccs2)cc1)N1CCN(c2ccccc2Cl)CC1
 : 1 | 0.8 | 4486 | -31 | -9 | 5 | 9
CCCc1cc(=O)oc2c(CN3CCN(C)CC3)c(O)ccc12
 : -9 | 4.2 | 3639 | -13 | 2 | 3 | 1
O=C(Nc1ccc(Cl)cc1)c1csc(Cc2ccccc2)n1
 : -1 | -0.6 | 4371 | -60 | 5 | 12 | 14
COc1ccc(NC(=O)CS(=O)CC(=O)Nc2ccc(OC)c(OC)c2)cc1 (configuration not stated)
 : 2 | 1.4 | 9536 | -14 | 2 | 0 | 3
CCc1[nH]nc(C(=O)N2CCCC(C(=O)c3cccc(OC(C)C)c3)C2)c1C (configuration not stated)
 : 6 | -0.6 | 5820 | -6 | -5 | -5 | 8
Cc1cnn(C(=O)c2cc(-c3ccccn3)nc3ccc(Cl)cc23)c1
 : -4 | 3.5 | 3243 | -23 | 18 | 11 | 6
COn1c(-c2ccccc2)nc2c1CCc1c-2no[n+]1[O-]
 : 1 | -3.4 | 2648 | -19 | 7 | · | ·
O=C(NCC1CCCO1)C1CCN(C2CCN(Cc3ccco3)CC2)CC1 (configuration not stated)
 : 0 | 0.8 | 1982 | -10 | 0 | 2 | 5
COc1cccc(-c2cc(C(=O)Nc3ccccc3)c3ccccc3n2)c1
 : -3 | 1.1 | · | · | 4 | 11 | -1
N#C/C(=C\c1c[nH]c2ccccc12)C(=O)Nc1ncc(Cc2ccc(Cl)cc2Cl)s1
 : 3 | -5.2 | 2411 | -29 | -30 | · | ·
CCCCn1c(SCC(=O)NCc2ccco2)nnc1-c1ccoc1C
 : -1 | 3.5 | 3657 | -6 | -1 | · | ·
COC(=O)CSc1nnc(SCc2ccccc2)s1
 : 3 | 10 | 8818 | -24 | 19 | 10 | 10
COc1ccc(CCNC(=O)c2cccnc2)cc1OC
 : -3 | 1.2 | 9865 | -15 | 0 | 5 | 5
CC(C)(C)C(=O)Nc1ccc(/C=C/C(=O)c2ccco2)cc1
 : -18 | 9.2 | 4687 | -3 | 3 | 15 | 1
COc1ccc(OC)c(C=NNC(=S)NCCc2ccccc2)c1
 : · | 1.8 | · | · | 20 | 9 | 9
CC(=O)n1cc(/C=N/NC(=O)c2ccccc2Cl)c2ccccc21
 : 8 | · | 3724 | -10 | · | · | ·
C=CCN1C(=O)c2ccc(C(=O)N3CCN(S(=O)(=O)c4cccc(Cl)c4)CC3)cc2C1=O
 : -8 | · | ? | -10 | · | · | ·
O=C(COC(=O)c1ccc(S(=O)(=O)C(F)F)cc1)NC(=O)NC1CCCCC1
 : 10 | 2.2 | ? | -9 | -1 | 0 | 0
O=C(C=Cc1ccoc1)c1ccccc1O
 : · | 5.8 | · | · | -5 | 8 | 6
O=C(O)CCCC(=O)N1N=C(c2ccccc2)CC1c1ccc2nccnc2c1 (configuration not stated)
 : -2 | 3.2 | 2442 | -27 | 1 | 7 | 7
CCOC(=O)C1=C(C)Nc2ncnn2C1c1cc(OC)ccc1OC (configuration not stated)
 : -2 | 1.7 | 5789 | -17 | 9 | 4 | 8
C=CCn1c(O)c(N=Nc2ccccc2)c2ccccc21
 : -4 | · | 3474 | -20 | · | · | ·
CC1=NN(C(N)=S)C(C)(C)C1
 : -1 | 3.8 | 4075 | -17 | 3 | 4 | 3
Cc1cc(Br)c(S(=O)(=O)NCc2cccnc2)cc1C
 : 1 | 1.0 | 3460 | -11 | 7 | 15 | 9
CCC(C)(C)NC(=O)C(c1ccncc1)N(C(=O)Cn1nnc2ccccc21)c1cc2c(cc1C(C)=O)OCO2 (configuration not stated)
 : 6 | 0.2 | 2665 | -6 | 6 | 0 | 2
COCCCNC(=O)NC(=O)c1ccccc1
 : -3 | 4.3 | 2441 | -9 | 9 | 3 | -11
O=C(NCc1cccs1)c1cc(-c2cccc(Cl)c2)on1
 : 5 | 6.8 | 10458 | -67 | 0 | 5 | 7
CCCCCCOc1ccc(OC(=O)c2ccncc2)cc1
 : -4 | 1.8 | 4949 | -7 | 11 | · | ·
Cc1ccc(C(=O)N2CCN(S(=O)(=O)c3ccc(C)cc3)CC2)cc1
 : 5 | 5.6 | 4294 | -8 | -1 | -1 | 3
CC(=NNC(=O)c1ccccc1O)c1ccc(N2C(=O)C3CCCCC3C2=O)cc1 (configuration not stated)
 : · | 8.8 | · | · | -9 | 7 | 9
O=C(Nc1nnc(-c2ccccc2Cl)o1)c1ccco1
 : 5 | 8.8 | 9730 | -12 | -12 | 6 | 5
COc1cc2c(cc1OC)[C@@H](NC(=O)CCc1ccccc1)[C@H](OCc1ccccc1)C2
 : · | 0.1 | 3535 | 7 | -4 | -5 | 6
CN(c1ccccc1)c1nc(N)c([N+](=O)[O-])c(N2CCOCC2)n1
 : -6 | 2.1 | 3826 | -11 | 11 | 4 | 5
COc1ccc(/C=C2/C(=O)N(c3ccccc3)N=C2C)cc1OC
 : 15 | · | 3574 | -7 | · | · | ·
O=C1CSC(c2ccc([N+](=O)[O-])cc2)N1c1ccc(O)cc1 (configuration not stated)
 : 3 | 0.9 | 3391 | 1 | 1 | 1 | 6
COc1cc2sc(-c3ccc(S(C)(=O)=O)cc3)c(C(=O)NCc3ccc(C)o3)c2cc1OC
 : · | -1.5 | 3630 | -4 | -3 | -7 | 1
CCOc1ccc(CCNC(=O)Cc2ccc(NC(=O)C3=C(C)OCCS3)cc2)cc1
 : -16 | 3.8 | 4664 | -15 | 11 | -5 | -5
CS(=O)(=O)c1ccc(-c2nnn(CC(=O)Nc3ccc4c(c3)OCCO4)n2)cc1
 : 1 | 6.6 | 5741 | -27 | 6 | 5 | 0
O=C(CNC(=O)c1ccccc1F)N/N=C/c1ccc2c(c1)OCO2
 : 10 | · | 6132 | -17 | · | · | ·
CCCc1ccc(C2=Nn3c(nnc3C(C)C)SC2)cc1
 : 10 | 13 | 4213 | -8 | 6 | -6 | 20
Cc1ccc(OCC(=O)NCCCNC(=O)c2cccnc2)cc1
 : -3 | 2.9 | 2849 | -2 | 14 | 4 | -2
CCOc1cc(/C=N/O)ccc1OS(=O)(=O)c1ccc(C)cc1
 : 10 | · | 3800 | -11 | · | · | ·
CCN(CC(=O)Nc1c(F)cccc1F)C(=O)c1ccc(COc2ccccc2)o1
 : 20 | -4.4 | 6079 | -64 | 5 | -1 | -13
O=C(Oc1c(Br)cc(Br)c2cccnc12)N1CCCCC1
 : 3 | 6.6 | 4577 | -15 | 1 | 6 | 6
COc1ccc(C)cc1N(CC(=O)Nc1cccc(N(C)S(C)(=O)=O)c1)S(C)(=O)=O
 : 6 | 0.2 | 4998 | -21 | 1 | 5 | 8
CC(=O)NN1C(=O)c2ccccc2NC1c1cccc([N+](=O)[O-])c1 (configuration not stated)
 : -23 | 3.1 | 4081 | -6 | 18 | 9 | 15
CCOc1cc(/C=N/NS(=O)(=O)c2ccccc2)ccc1OS(=O)(=O)c1ccc(C)cc1
 : 0 | · | 5854 | -4 | · | · | ·
Cc1nc2scc(-c3ccc(Cl)cc3)c2c(=O)n1N
 : -2 | 1.3 | 2411 | -7 | 10 | -3 | 5
O=C(Nc1ccccc1)C1CCCN1/C=C/C(=O)C(F)(F)F (configuration not stated)
 : -13 | -0.1 | 3827 | -5 | 1 | 0 | 7
CSc1ccc(/C=C(\C#N)C(=O)NC2CCCCC2C)cc1 (configuration not stated)
 : -3 | -2.4 | 2489 | -14 | -25 | -1 | 11
Cc1occc1-c1nnc(SCC(=O)Nc2c(F)cccc2F)n1C
 : -2 | 1.6 | ? | 12 | 3 | -5 | 0
COCCNC(=O)CSc1nc2cc3c(cc2c(=O)n1CCCC(=O)NCc1ccc(OC)cc1)OCO3
 : 7 | 6.9 | 4073 | -12 | 7 | 3 | 8

Screening data as filed in PubChem BioAssay.
